# HTT promoter inh = Primary qHTS for Identification of Small Molecule Inhibitors of Huntingtin Promoter Activity | HEK293 HTT promoter firefly luciferase reporter (activity 0% = vehicle and -100% = no light), 24 h | 0.93% of 48,000 active | Potency, µM (series often up to 57.5 µM), without a hit: top-dose activity change, negative = inhibition, hits mostly inhibitors; active means well fitted inhibition curve with a large enough effect; inconclusive means small, poorly fitted or top-dose-only effect; inactive means no such curve, though single readings can be large or run the other way; further: nearly all actives have a fitted effect of over 50% in size
#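 HEK293 Fluc reporter, 2,500 cells/well, 24 h pre-culture; cpds up to 57.5 uM final, 24 h 37 degrees C; Dual-Glo, 10 min RT; normalized vehicle = 0%, zero RLU = -100%.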
# PMP22 txn = Cell-based coincidence reporter assay to measure PMP22 gene transcription in S16 Pmp22-F2sN cells - Primary screen. Potency, µM (titrated, usually from 57.5 µM), inactives show at the highest dose activity change, negative = inhibition, usual class: inhibitors. 2% of 43,000 active. S16 Pmp22-F2sN Schwann cells (luciferase reporters placed in the Pmp22 gene), FLuc/NLuc coincidence luminescence, 24 h; active = clear falling dose curves in both reporters; inconclusive = both reporters move, but less clearly or upward; inactive = either reporter flat; the % is the NLuc reporter signal; further: on the % scale 0 is the no-effect control and ±100 the full control effect; some results filed as inactive show a strong effect at the top dose
#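 qHTS, 1536-well. Cells seeded, compounds added by pin tool, 24 h 37C. Nano-Glo reagent 1 (lysis/FLuc), 10 min RT, read; Stop&Glo, 10 min RT, read NLuc.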
# An asterisk follows results filed as active; ? = inconclusive; / = no result given; [ ] = remark or other dose. Potency means the concentration at half of the fitted maximal effect.
molecule | HTT promoter inh | PMP22 txn
COc1ccc(OC)c(NC(=O)Cn2ccc3ccccc3c2=O)c1 | -0.8% | -3.6%
Cc1cc(C)c2c(=O)cc(C(=O)Nc3ccccc3C(F)(F)F)oc2c1 | -11.5% | -7.4%
CC1CC(OC(=O)c2ccccc2O)CC(C)(C)C1 (stereo not given) | 6.8% | /
Cc1cc(NC(=O)c2cccs2)cc(-c2nc3cc(Cl)ccc3o2)c1O | -11.3% | -6.1%
COc1ccc(Cn2c(=O)n(Cc3ccco3)c(=O)c3oc4ccccc4c32)cc1 | -1.0% | ?
COC(=O)C(C)Sc1nc2c(cnn2-c2ccc(F)cc2)c(=O)[nH]1 (stereo not given) | -7.2% | 4.2%
Cc1ccc(NC(=O)c2cc3nc(-c4ccc5c(c4)OCO5)cc(C(F)(F)F)n3n2)cc1Cl | 1.2% | 19.5%
CCN(c1ccccc1)S(=O)(=O)c1ccc(NC(=O)c2cc(=O)c3ccc(C)c(C)c3o2)cc1 | -18.7% | -18.2%
CCc1ccccc1Nc1nn2c(=O)c3ccc(C(=O)NCCC4=CCCCC4)cc3nc2s1 | -18.1% | ?
COc1ccc(CCNC(=O)CSc2cn(CCNC(=O)c3c(F)cccc3F)c3ccccc23)cc1OC | ? | ?
O=C(O)CSc1c2c(nc3cc(C(=O)Nc4ccc(F)c(Cl)c4)ccc13)CCC2 | ? | -26.0%
Cc1cc(C)cc(NC(=O)CSc2nccn2-c2ccccc2)c1 | ? | -52.1%
Cc1ccc(CSC2=Nc3ccccc3C3=NC(CCC(=O)NCc4cccs4)C(=O)N23)cc1 (stereo not given) | 25.4% | -23.7%
COc1ccc(N2CCN(C(CNS(=O)(=O)c3c(C)cc(C)cc3C)c3ccco3)CC2)cc1 (stereo not given) | ? | -34.0%
Cn1cc(-c2cc3n(n2)CCC(=O)N3CCCC(=O)Nc2ccccc2Cl)c2ccccc21 | -0.1% | -21.4%
COc1ccc(-c2noc(-c3ccc(NCC4CCCO4)c([N+](=O)[O-])c3)n2)cc1OC (stereo not given) | -4.0% | -2.4%
O=C(Nc1ccc(OCc2cc(=O)n3c4c(sc3n2)CCCC4)cc1)c1ccccc1 | -13.9% | 3.6%
COc1ccc(CNC(=O)CCS(=O)(=O)c2cc(Br)cc3c2N(C(C)=O)C(C)C3)cc1 (stereo not given) | -18.2% | -14.5%
CCOc1cc(C2C(C(=O)OC)=C(C)NC3=C2C(=O)c2ccccc23)ccc1OC (stereo not given) | -17.0% | ?
CCOc1ccc(NC(=O)CN2C(=O)COc3ccc(S(=O)(=O)Nc4ccccc4)cc32)cc1 | -11.0% | -18.7%
O=C(CC1C(=O)N(c2ccccc2)C(=O)N1CCC1=CCCCC1)Nc1ccc(F)cc1 (stereo not given) | -40.7% | 0.5%
Cc1cc(C)c(NC(=O)c2cc(S(=O)(=O)N3CCC4(CC3)OCCO4)ccc2F)c(C)c1 | -20.1% | 8.6%
CCC(=O)N1CCc2cc(CNC(=O)Cc3ccc(OC)c(OC)c3)ccc21 | ? | ?
O=c1c(NCc2cccs2)nccn1-c1ccccc1 | 21.9% | ?
O=C(CSc1nc2c([nH]c3ccccc32)c(=O)n1-c1ccccc1F)Nc1cccc(C(F)(F)F)c1 | ? | ?
COc1ccc(C)c2sc(N3CCN(C(=O)c4cccc(F)c4)CC3)nc12 | -10.4% | ?
Cc1c(Cl)cccc1Nc1nc(N)nc(CSc2nc3ccccc3s2)n1 | ? | ?
O=c1oc2c(CN3CCOCC3)c(O)ccc2cc1-c1ccccc1 | 4.1% | -12.6%
Cc1ccc(CCNC(=O)CN2N=C(c3ccc(C)cc3)CCC2=O)cc1 | -17.5% | -2.0%
COc1ccc(C(=O)n2nc(-c3cccnc3)nc2NCc2ccccc2)cc1OC | -6.5% | -24.8%
Fc1cccc(-c2nc(-c3ccncc3)no2)c1 | 40.0%[activator] | ?
CCOC(=O)c1ccc2nc(C)cc(Nc3cccc(C(=O)O)c3)c2c1 | -5.4% | -1.0%
O=C(Nc1ccc2nc(SCC(=O)N3CCCc4ccccc43)sc2c1)c1cccc(Cl)c1 | ? | -14.7%
CSc1ncc(C(=O)Nc2ccc(C(C)=O)cc2)c(-c2ccccc2)n1 | 37.4%[activator] | -35.7%
COc1ccc(/C=C/c2nc(-c3ccccc3O)n(-c3ccccc3)n2)cc1OC | -29.4% | 33.4%
O=C(COc1ccccc1)Nc1ccccc1OCc1cc(=O)n2ccccc2n1 | 3.0% | -0.5%
CCCc1ccc(C2Sc3ccccc3NC3=C2C(=O)c2ccccc23)cc1 (stereo not given) | 31.6µM* | ?
Cc1cc(-c2nnc3n2CCCCC3)c(C)n1-c1ccccc1 | ? | /
COc1ccc(OC)c(C2c3c(-c4ccc(Br)cc4)n[nH]c3C(=O)N2c2ccc(Cl)cc2)c1 (stereo not given) | -27.0% | ?
CC(=O)NCCc1nc2ccccc2n1CCCCOc1ccc(Cl)cc1 | -26.5% | ?
Cc1ccc2c(Sc3ccc(Cl)cc3)c(C(=O)NCCC(C)C)[nH]c2c1 | -16.8% | 11.1%
Cc1cc(C)cc(NS(=O)(=O)c2ccc3[nH]cc(C(=O)NC4CCCCC4)c(=O)c3c2)c1 | -29.8% | ?
Nc1c(C(=O)NCCc2ccccc2)nnn1CC(=O)Nc1ccc(Cl)cc1 | -10.8% | -14.1%
COCCCNC(=O)CCCn1c(SCC(=O)c2ccc(Br)cc2)nc2c(sc3ccccc32)c1=O | -3.5% | -61.2%
CCc1ccc(CNC(=O)c2cccc(-n3c(C)nc4cccnc43)c2)cc1 | ? | ?
COc1cccc(-c2ccc3c(N)c(C(=O)NCc4ccc(Cl)cc4)sc3n2)c1 | -25.1% | ?
Cc1ccccc1NC(=O)CSc1nc2nccnc2c(=O)n1CCc1c[nH]c2ccccc12 | -1.7% | ?
CCOC(=O)c1ccc(NC(=O)CC2C(=O)N(c3cccc(OC)c3)C(=O)N2Cc2ccc(OC)cc2)cc1 (stereo not given) | -17.4% | ?
CCOc1ccccc1CNCc1c(C(=O)O)c(C)n(Cc2ccc(Cl)cc2)c1C | 14.5% | -12.6%
COc1ccc(S(=O)(=O)N(CC(=O)NCc2ccccc2OC)c2ccc(C)cc2)cc1 | -29.1% | -17.7%
Cc1c(C(=O)N2CCCCCC2)c(S(=O)(=O)NCc2ccccc2)c(C)n1C | 1.7% | 5.7%
CCOC(=O)c1[nH]c(C)c(CCC(=O)NCc2ccccc2C)c1C | -13.9% | 0.6%
CCOc1ccccc1NS(=O)(=O)c1ccc2c(c1)oc(=O)n2C | ? | -39.6%
Cc1nc(C)c(-c2ccc(SCC(=O)Nc3ccc(C)c(F)c3)nn2)s1 | ? | -40.3%
Cc1nn(C(=O)c2c(F)cccc2F)c(C)c1S(=O)(=O)N1CCOCC1 | -15.9% | -3.6%
NS(=O)(=O)c1ccc(NC(=O)CN2CCN(c3ccc(F)cc3)CC2)cc1 | -29.2% | 0.4%

# Further records follow:
molecule | HTT promoter inh | PMP22 txn
CC(C)(C)NC(=O)c1cnn(-c2ccccc2)c1C1CCN(C(=O)OC(C)(C)C)CC1 | -9.1% | -24.4%
Cc1oc2ncn(CC(C)C)c(=O)c2c1C(=O)NCc1cccc(Cl)c1 | -17.4% | ?
COc1cccc(-c2nc3c(c(SCC(=O)Nc4cc(C)ccc4C)n2)Cc2c(CO)cnc(C)c2O3)c1 | -22.5% | 2.6%
CCN(c1ccccc1)c1nnc(NC(=O)Nc2cccc(Cl)c2C)s1 | 0.2% | -53.4%
Cc1ccc2c(=O)c(C(=O)c3cccc(Cl)c3)cn(CC(=O)Nc3ccc4c(c3)OCCO4)c2n1 | -17.8% | 9.0%
CCCCNC(=O)c1cnc2sc(N3CCCCCC3)nn2c1=O | 1.9% | -9.0%
Cc1nn2c(=O)cc(COC(=O)Cc3ccccc3)nc2s1 | -5.6% | -24.5%
COc1cccc(CNC(=O)CN2C(=O)CSc3c2c(C)nn3-c2ccccc2)c1 | -21.9% | -2.3%
CCSc1nn(CC(=O)Nc2cccc(CC)c2)c(N)c1S(=O)(=O)c1ccccc1 | ? | ?
CCOC(=O)c1ccc(OC(=O)c2cn(-c3cccc(OC)c3)c(=O)c3ccccc23)cc1 | -11.1% | -19.5%
COc1cccc(CN2CCCN(CC(=O)Nc3ccc4c(c3)OCCO4)S2(=O)=O)c1 | -1.9% | ?
COc1ccc(CNC(=O)CSc2nc3ccsc3c(=O)n2Cc2ccccc2Cl)cc1 | -30.5% | ?
COc1ccccc1CNC(=O)Cc1c(C)c2c(cc(C)c3c(C)c(C)oc32)oc1=O | -1.6% | -0.3%
CCC(Sc1nc2ccncc2[nH]1)C(=O)Nc1cc(Cl)ccc1C (stereo not given) | -26.2% | -71.9%
Cc1ccc(SCC(=O)Nc2ccc3oc(-c4ccc(F)cc4)nc3c2)cc1 | 70.2%[activator] | -7.0%
Cc1ccc(C(C)C)c(OCCCn2c(=O)oc3ccccc32)c1 | -5.1% | -7.9%

# One compound at a time, as listed above. Order of values: HTT promoter inh	PMP22 txn
# COc1ccc(CNC(=O)CSc2nc3ccsc3c(=O)n2Cc2ccccc2Cl)cc1 in the list: -30.5%	?
# COc1ccccc1CNC(=O)Cc1c(C)c2c(cc(C)c3c(C)c(C)oc32)oc1=O in the list: -1.6%	-0.3%
# COc1cccc(CN2CCCN(CC(=O)Nc3ccc4c(c3)OCCO4)S2(=O)=O)c1 in the list: -1.9%	?
# CCC(Sc1nc2ccncc2[nH]1)C(=O)Nc1cc(Cl)ccc1C (stereo not given) in the list: -26.2%	-71.9%

# Next part.
molecule | HTT promoter inh | PMP22 txn
Cc1ccc2nc(Cl)c3cc(C(=O)N4CCCCC4C)sc3c2c1 (stereo not given) | -8.2% | -7.5%
Cc1nc2c(C(=O)NCc3ccccc3Cl)cnn2c(C)c1Cc1c(F)cccc1Cl | -13.7% | ?
O=C(Cn1ncc2c([nH]c3ccccc32)c1=O)NCC1CCN(Cc2ccc(F)cc2)CC1 | -7.5% | -14.4%
Cc1csc2nc(COC(=O)COc3ccccc3F)cc(=O)n12 | -22.5% | -17.8%
COc1cc(NC(=O)CSc2nc(-c3cccs3)cc(C(F)(F)F)n2)cc(OC)c1OC | 2.5% | ?
O=C(CSc1nc2ccccc2nc1Cc1ccccc1)N1CCCCC1 | -24.9% | -61.8%
Cc1ccc(N2CCN(C(=O)c3ccc4c(Cl)c5c(nc4c3)CCCC5)CC2)c(C)c1 | -6.1% | 0.4%
CCOc1ccccc1CNC(=O)c1ccc2nc(CCc3ccccc3)oc2c1 | -26.4% | -16.2%
Nc1nc2[nH]cc(CCc3ccc(C(=O)N[C@@H](CCC(=O)O)C(=O)O)cc3)c2c(=O)[nH]1 | -14.2% | /
COc1cc(/C=C/C(N)=O)cc(OC)c1OC | 21.6% | /
COc1cc(O)ccc1-c1nc2cc(C)ccn2c1Nc1ccccc1C | -30.9% | ?
Cc1ccc(CSC2=Nc3ccccc3C3=NC(CC(=O)NCc4ccc5c(c4)OCO5)C(=O)N23)cc1 (stereo not given) | -0.4% | -37.3%
O=C(c1ccc2c(c1)N(Cc1ccccc1)C(=O)c1ccccc1S2(=O)=O)N1CCc2ccccc21 | -26.4% | -16.6%
Cc1cc(F)ccc1-n1nnc(C(N)=O)c1C | 4.6% | -0.3%
Cc1cc(C)c(OCC(=O)N(Cc2ccc(N(C)C)cc2)Cc2ccco2)c(C)c1 | -28.4% | ?
CCOC(=O)c1ccc(NC(=O)CSc2ccc(-c3sc(C)nc3C)nn2)cc1 | -21.5% | -15.8%
Cc1ccc(Nc2nc(N)nc(CSc3nc4ccccc4s3)n2)cc1 | -29.3% | ?
CC(NC(=O)C1CCN(C(=O)N2CCOc3ccc(Cl)cc32)CC1)c1ccccc1 (stereo not given) | -16.5% | -7.6%
O=C(Nc1ccc(N2CCN(c3ccc(F)cc3)CC2)c(C(=O)O)c1)c1cccs1 | -4.9% | 33.7%
COc1ccc(N(C(=O)c2cc(OC)c(OC)c(OC)c2)S(=O)(=O)c2ccc(C)cc2)cc1 | ? | 18.9µM*
CCOC(=O)N1CCC(NC(=O)c2ccc3c(c2)N(Cc2cc(C)ccc2C)C(=O)c2ccccc2S3=O)CC1 (stereo not given) | ? | ?
Cc1nn(Cc2ccccc2Cl)c(C)c1CN(C)CC(O)COc1ccc(Cl)cc1 (stereo not given) | -17.6% | /
O=C(Nc1ccc(F)cc1)N1CCN(c2ccccc2F)CC1 | 20.3% | -12.1%
O=C1CN(C(=O)C2CCCCC2)C(c2ccccc2)c2cc(F)ccc2N1 (stereo not given) | ? | 4.7%
CCN(CCCNC(=O)c1cc2cc3ccc(OC)cc3nc2s1)c1ccccc1 | -15.0% | ?
CCC1CCCCN1C(=O)Cn1c(=O)n(-c2ccccc2C(F)(F)F)c(=O)c2c(C)c(C(=O)N(C)C)sc21 (stereo not given) | 13.3% | 4.4%
CCOc1ccccc1NC(=O)CSc1nc2cc(OC)c(OC)cc2c2nc(CCn3c(C)nc4ccccc43)nn12 | ? | ?
CCOc1ccccc1NC(=O)Cn1c(=O)n(Cc2ccc(C(=O)NCCCOC)cc2)c(=O)c2ccccc21 | -3.7% | ?
COc1ccc(NC(=O)c2oc3ccccc3c2NC(=O)c2cc3ccccc3o2)cc1 | 4.5% | ?

# Source: PubChem BioAssay (National Center for Advancing Translational Sciences (NCATS))
